Screening data as filed in PubChem BioAssay.
MARV entry inh – inhibitors of Marburg virus binding or cell entry. Marburg virus pseudotyped entry inhibition, cell reporter; control for the full effect not named in the record; about a third of the inactives were read at about 46 µM. Potency, µM (highest dose often 37.8 µM), without a hit: top-dose activity change, negative = inhibition, hits mostly inhibitors. AID 540276. 300,000 tested, 1.8% active; active = well fitted inhibition curve with a large enough effect; inconclusive = small, poorly fitted or top-dose-only effect, or effect the other way; inactive = flat fitted curve, though single readings scatter; tested in HEK293 cells; about a fifth of its hits are not listed in these tables; further: on the % scale 0 is the no-effect control and ±100 the full control effect; luciferase read-out
StopGo reporter – lowers the luciferase signal of an FMDV 2A StopGo reporter; human cells with a luciferase reporter of 2A StopGo recoding; control for the full effect not named in the record; Potency, µM (doses to about 57.9 µM), for the others: top-dose signal change, negative = less light; 410,000 tested, 1.2% active; AID 1159524; active = well fitted falling curve with a large enough effect; inconclusive = small, poorly fitted or top-dose-only effect; inactive = no such curve, though single readings can be large or run the other way; tested in HEK293T cells; further: on the % scale 0 is the no-effect control and ±100 the full control effect; nearly all actives have a fitted effect of over 45% in size; luciferase light after 4 h
SARS PLpro yeast – inhibitors of SARS-CoV papain-like protease in yeast. Potency, µM (top dose mostly 32.9 µM), without a hit: at the top dose activity, positive = growth rescue. S. cerevisiae expressing SARS-CoV PLpro, growth rescue; control for the full effect not named in the record. AID 485353. 330,000 tested, 0.19% active; further: 0% is about no effect; nearly all actives have a fitted effect of over 55% in size; growth read by luminescence after 48 h
NS1 inh – inhibitors of influenza NS1 protein function. S. cerevisiae slowed by influenza A NS1, growth recovery by OD600. Potency, µM (top dose mostly 46.1 µM), inactives show top-dose activity, positive = more growth. 270,000 tested, 0.4% active. AID 2326; further: actives are rising curves; nearly all actives have a fitted effect of over 50% in size
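Growth recovery, yeast-based: influenza A NS1 expressed in S. cerevisiae causes slow growth, and suppressors are detected by OD600. The parent strain without NS1 is used as positive control.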
RE007 growth inh – less growth of the S. pombe RE007 Vpr strain | AID 651644 | Potency, µM (doses to about 92.2 µM), for the others: at the highest dose activity change, negative = less growth | S. pombe RE007 Vpr strain, BacTiter-Glo ATP luminescence, 24 h; control for the full effect not named in the record | 360,000 tested, 0.21% active; active = well fitted falling curve with a large enough effect; inconclusive = small, poorly fitted or top-dose-only effect; inactive = no such curve, though single readings can be large or run the other way;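 further: on the % scale 0 is the no-effect control and ±100 the full control effect; nearly all actives have a fitted effect of over 50% in size; the assay follows cell death caused by Vpr and the record does not say whether a fall means rescue or toxicity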
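Fission yeast RE007 carrying one integrated HIV-1 vpr copy, seeded at OD 0.01 in PMG+AL medium with 23 nL pinned compound. Grown 24 h at 30 degrees; viability read by BacTiter-Glo luminescence after 5 min.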
Lassa entry inh – inhibitors of Lassa virus binding or cell entry; Lassa virus pseudotype entry inhibition, cell reporter; control for the full effect not named in the record; 300,000 tested, 1.2% active; Potency, µM (titrated, usually from 37.9 µM), inactives show at the highest dose activity change, negative = inhibition, usual class: inhibitors; active means well fitted inhibition curve with a large enough effect; inconclusive means small, poorly fitted or top-dose-only effect, or effect the other way; inactive means flat fitted curve, though single readings scatter; tested in HEK293 cells; further: on the % scale 0 is the no-effect control and ±100 the full control effect; nearly all actives have a fitted effect of over 50% in size; luciferase read-out
Cruzain inh Det – cruzain (T. cruzi) inhibition with detergent | 200,000 tested, 0.43% active | purified cruzain, Z-FR-AMC fluorescence, 0.01% Triton | Potency, µM, inactives show max response, negative = inhibition, actives largely listed as inhibitors | P25779 | AID 1478; active means well fitted curve in the direction sought with a large enough effect; inconclusive means small, poorly fitted or top-dose-only effect, or another doubt; inactive means no such curve, though single readings can be large; an effect the other way counts as inactive or inconclusive;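 further: plate controls were neutral wells for no effect and buffer without enzyme for full effect; nearly all actives have a fitted effect of over 40% in size; top concentration of the series not given in the record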
Target sequence (P25779 123-467 limits assumed): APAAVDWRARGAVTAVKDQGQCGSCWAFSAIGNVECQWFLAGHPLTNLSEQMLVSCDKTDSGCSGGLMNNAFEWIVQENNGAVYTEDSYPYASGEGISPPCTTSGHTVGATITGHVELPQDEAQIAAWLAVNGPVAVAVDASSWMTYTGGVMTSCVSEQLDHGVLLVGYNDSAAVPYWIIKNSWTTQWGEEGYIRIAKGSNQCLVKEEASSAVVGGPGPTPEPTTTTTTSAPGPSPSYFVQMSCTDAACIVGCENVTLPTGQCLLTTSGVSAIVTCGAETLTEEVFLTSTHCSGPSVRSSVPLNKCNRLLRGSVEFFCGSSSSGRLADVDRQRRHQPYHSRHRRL
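Steps: dispense cruzain (1.5 nM final) in acetate buffer pH 5.5 with DTT and 0.01% Triton X-100; pin-transfer compounds; incubate 15 min RT; add Z-FR-AMC (2 uM final); read fluorescence every 30 s, using the 60 s intensity change.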
Cruzain inh noDet – blocks cruzain activity in detergent-free assay; 200,000 tested, 2.3% active; AID 1476; Potency, µM, for the others: max response, negative = inhibition, hits mostly inhibitors; P25779; purified cruzain, Z-FR-AMC fluorescence, no detergent; active means well fitted curve in the direction sought with a large enough effect; inconclusive means small, poorly fitted or top-dose-only effect, or another doubt; inactive means no such curve, though single readings can be large; an effect the other way counts as inactive or inconclusive;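 further: plate controls were enzyme without inhibitor for no effect and buffer without enzyme for full effect; nearly all actives have a fitted effect of over 40% in size; top concentration of the series not given in the record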
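Purified cruzain at 1.5 nM, pre-incubated 15 min with compound at room temperature in 100 mM sodium acetate pH 5.5, 5 mM DTT, 0.00005% Triton X-100. Reaction started with 2 uM Z-FR-AMC; AMC fluorescence increase over 60 s gives rate.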
Active calls of the source: *; ? = inconclusive; · = no result given; [ ] = dose if it differs, or a comment. Unless noted, the call rests on the fitted dose curve; in most records, active means well fitted rising curve with a large enough effect; inconclusive means small, poorly fitted or top-dose-only effect; inactive means no such curve, though single readings can be large or run the other way. Potency means the concentration at half of the fitted maximal effect.

Second line of a record: MARV entry inh, StopGo reporter, SARS PLpro yeast, NS1 inh, RE007 growth inh, Lassa entry inh, Cruzain inh Det, Cruzain inh noDet
COc1ccc(NC(=O)Nc2ccccc2SC)c(OC)c1
 : -2.0%[46.1 µM], 12.9%, 0.2%, 5.4%, -21.9%, ·, ·, ·
C=CCN(C(=O)CSc1nc2[nH]ncc2c(=O)n1-c1ccccc1OC)c1ccccc1
 : -25.3%, -12.5%, 0.6%, -9.7%, 9.6%, -2.1%, 2.7%, 5.4%
Cn1c(SCC(=O)NCCc2ccccc2)ncc(C(=O)Nc2ccccc2)c1=O
 : -26.8%, ?, -4.2%, ·, 2.2%, 2.0%, ·, ·
CC1CCN(C(=O)c2ccc3c(c2)NC(=O)/C(=C/c2ccccc2)S3)CC1
 : ?, -4.3%, -6.5%, 11.4%, -13.7%, ?, ·, ·
CCc1ccc(NC(=O)c2ccc(F)c(S(=O)(=O)NC3CCCCCC3)c2)cc1
 : ·, 6.3%, ·, ·, ·, ?, -0.7%, -14.8%
COc1ccc(-n2nc(C(=O)N3CCN(c4ccccc4OC)CC3)c3c4ccccc4n(C)c3c2=O)cc1
 : -2.0%[46.1 µM], -13.3%, ·, ·, ·, 1.8%[46.1 µM], -0.7%, -8.0%
S=C(Nc1ccccc1Cl)N1CCCCCC1
 : -2.4%[46.1 µM], 49.5%[activator], 1.1%, ·, 15.7%, -0.2%, ·, ·
O=C(COC(=O)c1ccc(Cl)c(Cl)c1)NC1CCCC1
 : ·, -18.5%, 1.1%, -2.4%, 3.3%, ·, ·, ·
O=C(O)c1ccc(Cl)c(S(=O)(=O)NCc2ccco2)c1
 : 5.7%, 11.7%, 9.4%, 1.5%, 1.9%, 17.2%, 2.0%, -11.2%
COc1ccc(C2=NN(CN3C(=O)C(=O)c4ccccc43)C(c3cccc([N+](=O)[O-])c3)C2)cc1 (stereo unspecified)
 : -17.2%[46.1 µM], -7.3%, -0.2%, 4.0%, -4.7%, -14.3%, ·, ·
CCN(CC)CCCN1C(=O)C(=O)/C(=C(/O)c2ccc(Cl)cc2)C1c1ccccn1 (stereo unspecified)
 : 15.8%, 1.7%, -0.2%, -0.3%, -4.4%, -0.3%, 1.2%, 1.9%
Oc1ccc(C2N=C(c3ccccc3)NC(c3ccccc3)=N2)cc1
 : -15.0%, ?, -1.8%, 9.3%, -13.2%, 21.5%, -2.9%, 4.8%
O=C(NC1CCCCC1)C(c1ccccc1)N(C(=O)c1cccs1)c1ccc2c(c1)OCO2 (stereo unspecified)
 : -17.2%, -14.8%, -1.8%, 12.8%, 2.1%, 5.7%, 1.5%, 6.1%
O=C1NC2(CCC3(CC2)OCCO3)NN1c1ccc(Cl)cc1
 : ?, 21.2%, -10.3%, ·, 86.3%, 2.9%[46.1 µM], ·, ·
CN(C(=O)Cn1c(Cl)nc2c1c(=O)n(C)c(=O)n2C)C1CCS(=O)(=O)C1 (stereo unspecified)
 : ?, -8.3%, 1.7%, ·, 6.5%, 13.0%, ·, ·

Continued.
Second line of a record: MARV entry inh, StopGo reporter, SARS PLpro yeast, NS1 inh, RE007 growth inh, Lassa entry inh, Cruzain inh Det, Cruzain inh noDet
Cc1cc(N2CCN(Cc3nc(-c4ccc(F)cc4)oc3C)CC2)cc(C)n1
 : ·, -24.0%, -0.5%, 3.2%, -4.4%, ·, ·, ·
CC(C)Cn1nc(C(=O)Nc2cccc(S(=O)(=O)N3CCCC3)c2)c2ccccc2c1=O
 : ?, -18.1%, 4.4%, ·, -12.1%, ?, ·, ·
CC(C)(C)CC(=O)NC(=S)Nc1ccccc1C(F)(F)F
 : -29.4%, -7.4%, 1.7%, -18.4%, -4.5%, -0.9%, -5.2%, -1.9%
C=CCNC(=O)c1ccc2nc(Cc3ccc(OC)cc3)oc2c1
 : ?, 31.2%[activator], ·, ·, 13.8%, 5.62µM*, ·, ·
CCOC(=O)c1sc(NC(=O)COc2ncnc3ccccc23)c(C(=O)OCC)c1C
 : -19.8%, -18.6%, 0.7%, -4.8%, -4.1%, 6.0%, -3.1%, 27.3%
O=C1COc2ccc(S(=O)(=O)N3CCN(c4ccccc4F)CC3)cc2N1
 : -14.0%[46.1 µM], -22.9%, -0.9%, 2.2%, 2.7%, ?, ·, ·
Cc1ccc[n+](CC(=O)Nc2cccc([N+](=O)[O-])c2)c1
 : ·, -8.5%, -1.7%, -3.7%, 15.4%, ·, ·, ·
Cc1cccc2sc(N(CCCN(C)C)C(=O)c3ccc(C(=O)c4ccccc4)cc3)nc12
 : ?, -6.5%, 0.0%, -32.2%, 22.0%, -28.8%[46.1 µM], ·, ·
CCN1C(=O)C(CC(=O)Nc2ccccc2)N(Cc2ccccn2)C1=S (stereo unspecified)
 : ?, -17.7%, 12.0%, ·, 11.7%, ?, ·, ·
Cc1nn(-c2ncc(C(F)(F)F)cc2Cl)c(=O)n1-c1cccc(Cl)c1
 : -17.3%[46.1 µM], -17.0%, -3.7%, -6.2%, 12.6%, -0.3%, 0.5%, 6.1%
Cc1cc(OC(=O)N2CCOCC2)cc(C)c1Cl
 : -1.1%[46.1 µM], -4.8%, ·, -6.7%, 1.1%, -4.7%, 2.9%, -0.5%
CC(=O)c1ccc2noc(-c3cccc(F)c3)c2c1
 : -29.9%, -0.5%, 0.8%, -6.7%, -15.7%, -19.7%, ·, ·
CC(=O)Nc1ccc2c(c1)C(=Nc1ccccc1)c1ccccc1-2
 : -11.3%[46.1 µM], 8.0%, ·, ·, -25.1%, -41.2%[46.1 µM], ·, ·
CCOC(=O)C1CCN(C(=O)c2ccc(SC)cc2OC)CC1
 : 2.4%, -9.5%, 0.1%, -2.7%, 6.2%, -13.4%, 5.0%, 5.6%
CCC(CC)NCc1ccc2c(c1)c1ccccc1n2CC
 : ?, -13.4%, 0.2%, -6.8%, -17.7%, ?, ·, ·

More compounds follow.
Second line of a record: MARV entry inh, StopGo reporter, SARS PLpro yeast, NS1 inh, RE007 growth inh, Lassa entry inh, Cruzain inh Det, Cruzain inh noDet
O=C(NCCC(=O)N1CCN(c2ccccn2)CC1)c1ccc(Br)cc1
 : -1.9%[46.1 µM], -9.4%, 0.1%, ·, -13.5%, 7.8%, ·, ·
Cc1nc2ncnn2c(C)c1CCC(=O)NCc1ccccc1
 : -4.5%, -23.1%, -0.7%, 11.2%, -6.6%[3.69 µM], 7.0%, 0.2%, 3.0%
CCCOc1ccc(C2NC(=O)NC(c3ccccc3)=C2C(C)=O)cc1OCC (stereo unspecified)
 : -26.2%, -22.6%, -5.5%, 3.7%, -8.1%, 4.1%, -2.0%, 0.1%
COc1ccc(Nc2ncnc3ccc(C)cc23)cc1
 : ·, 14.5%, -13.7%, -43.7%, -23.5%, ·, ·, ·
O=C(N/N=C/c1cccc(OC(=O)c2ccco2)c1)c1ccc(F)cc1
 : 6.0%, -24.2%, -10.3%, 12.2%, 2.0%, -19.0%, -6.1%, -6.9%
CCC(=O)NCc1cc(-c2nn(C)c(=O)c3ccccc23)ccc1C
 : 0.5%, -8.7%, 0.3%, -5.2%, 7.2%, 17.4%, 1.2%, -2.0%

In the list so far, these contain fluorine.
Second line of a record: MARV entry inh, StopGo reporter, SARS PLpro yeast, NS1 inh, RE007 growth inh, Lassa entry inh, Cruzain inh Det, Cruzain inh noDet
CCc1ccc(NC(=O)c2ccc(F)c(S(=O)(=O)NC3CCCCCC3)c2)cc1
 : ·, 6.3%, ·, ·, ·, ?, -0.7%, -14.8%
Cc1cc(N2CCN(Cc3nc(-c4ccc(F)cc4)oc3C)CC2)cc(C)n1
 : ·, -24.0%, -0.5%, 3.2%, -4.4%, ·, ·, ·
CC(C)(C)CC(=O)NC(=S)Nc1ccccc1C(F)(F)F
 : -29.4%, -7.4%, 1.7%, -18.4%, -4.5%, -0.9%, -5.2%, -1.9%
O=C1COc2ccc(S(=O)(=O)N3CCN(c4ccccc4F)CC3)cc2N1
 : -14.0%[46.1 µM], -22.9%, -0.9%, 2.2%, 2.7%, ?, ·, ·
Cc1nn(-c2ncc(C(F)(F)F)cc2Cl)c(=O)n1-c1cccc(Cl)c1
 : -17.3%[46.1 µM], -17.0%, -3.7%, -6.2%, 12.6%, -0.3%, 0.5%, 6.1%
CC(=O)c1ccc2noc(-c3cccc(F)c3)c2c1
 : -29.9%, -0.5%, 0.8%, -6.7%, -15.7%, -19.7%, ·, ·
O=C(N/N=C/c1cccc(OC(=O)c2ccco2)c1)c1ccc(F)cc1
 : 6.0%, -24.2%, -10.3%, 12.2%, 2.0%, -19.0%, -6.1%, -6.9%
